HPGD inh = qHTS Assay for Inhibitors of HPGD (15-Hydroxyprostaglandin Dehydrogenase); 15-hydroxyprostaglandin dehydrogenase [NAD(+)] (Homo sapiens), P15428; purified HPGD, NADH fluorescence kinetic, PGE2 substrate; Potency, µM, for the others: at the highest dose activity change, negative = inhibition, most hits filed as inhibitors; actives 4.3% (n = 150,000); AID 894, 2007; active = well fitted inhibition curve with a large enough effect (not every such curve was filed as active); inconclusive = small, poorly fitted or top-dose-only effect, or another doubt; inactive = no such curve, though single readings can be large or run the other way;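 also: top concentration of the series not given in the record; plate controls included wells without enzyme; inactives centre near -10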
Target sequence (P15428 whole entry, looked up): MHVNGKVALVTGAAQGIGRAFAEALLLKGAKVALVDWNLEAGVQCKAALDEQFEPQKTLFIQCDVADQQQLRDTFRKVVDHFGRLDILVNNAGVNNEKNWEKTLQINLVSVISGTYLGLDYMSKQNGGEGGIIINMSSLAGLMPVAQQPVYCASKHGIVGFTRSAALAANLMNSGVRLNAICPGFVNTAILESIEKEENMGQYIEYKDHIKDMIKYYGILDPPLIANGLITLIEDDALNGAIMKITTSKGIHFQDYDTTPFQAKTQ
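NADH formation kinetics: reaction with 30 uM PGE2 and 1 mM NAD+ (final), 20 nM enzyme, Tris-HCl pH 8 with Tween 20, after 15 min compound preincubation at room temperature. Fluorescence change, last versus first of five reads.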
Numbers without * were called inactive; ? = inconclusive; & = joins results of further samples. % is scaled to controls: 0 for no effect and ±100 for the full control effect; potency is read from the fitted curve at half-maximal effect. The list is partial; rates above refer to the full screens.

HPGD inh	compound
-9.8%	c1ccc(COc2ccc(OCCn3cncn3)cc2)cc1
-8.9%&-6.9%	CCCc1nn(C)c2c(=O)[nH]c(-c3cc(S(=O)(=O)N4CCN(C)CC4)ccc3OCC)nc12
?	Cc1cccc(/N=C/c2c(O)c3ccccc3oc2=O)n1
-8.4%	CC(n1cnnn1)C12CC3CC(CC(C3)C1)C2 (stereo unspecified)
-7.7%&-10.7%	COC(=O)[C@H]1[C@H]2C[C@@H]3c4[nH]c5cc(OC)ccc5c4CCN3C[C@H]2C[C@@H](OC(=O)c2cc(OC)c(OC)c(OC)c2)[C@@H]1OC
-7.4%&0.7%	C[C@@](N)(C(=O)O)c1ccc(C(=O)O)cc1
-3.7%	CCOC(=O)N1CCN(C(=O)Nc2ccc3nc(C)sc3c2)CC1
5.4%	CNC(=O)CSCc1c(F)cccc1Cl
-12.5%	CCOC(=O)N1CCN(c2ccc(C(=O)CC)cc2F)CC1
-6.6%	CC(C)NC(=O)CCNS(=O)(=O)c1ccc(Br)cc1
22.4µM*	CCN(C(=O)CCc1nc(-c2ccccc2F)no1)c1cc(OC)ccc1OC
-13.7%	CCN(CC)CCCN1C(=O)C(=O)/C(=C(/O)c2ccc(OC)c(Cl)c2)C1c1ccco1 (stereo unspecified)
-14.4%	O=C(Nc1cccc([N+](=O)[O-])c1)c1[nH]ncc1Cl
-4.2%	COc1ccc(CNC(=O)CCn2c(=O)oc3ccccc32)cc1
2.1%	CCOP(=O)(c1ccc(N(C)C)cc1)C(O)c1ccccc1OC (stereo unspecified)
-7.3%	C=CCn1c2ccccc2c2nnc(SCC(=O)Nc3c(C)n(C)n(-c4ccccc4)c3=O)nc21
-16.2%	COC(=O)c1sccc1NC(=O)CSc1ccccc1NS(=O)(=O)c1ccc(Cl)cc1
-22.1%	O=C(O)CCCNS(=O)(=O)c1cccs1
?	CCOc1ccc2[nH]c(=O)c(CN(Cc3nnnn3Cc3ccccc3)CC3CCCO3)cc2c1 (stereo unspecified)
-28.3%&-27.3%&-7.1%&-17.0%	c1ccc2[nH]c(-c3cscn3)nc2c1
-2.2%	CNC(=O)/C(=C\c1ccc2c(c1)OCO2)NC(=O)c1ccc(Br)cc1
-10.9%	CC1CC(C)CN(CCCNC(=O)Cc2c(C(=O)O)n(C)c3ccccc23)C1 (stereo unspecified)
-2.9%	N#CC1=C(N)OC2=C(C(=O)CCC2)C12CCC1(CC2)OCCO1
-23.6%	CCOC(=O)N1CCN(S(=O)(=O)c2ccc(C(=O)Nc3sc4c(c3C#N)CCC4)cc2)CC1
-14.1%	COc1ccccc1N1CC(C(=O)OCC(=O)c2ccc(F)cc2)CC1=O (stereo unspecified)

Some of these compounds in order of their number in HPGD inh, descending.
HPGD inh	compound
-2.9%	N#CC1=C(N)OC2=C(C(=O)CCC2)C12CCC1(CC2)OCCO1
-10.9%	CC1CC(C)CN(CCCNC(=O)Cc2c(C(=O)O)n(C)c3ccccc23)C1 (stereo unspecified)
-23.6%	CCOC(=O)N1CCN(S(=O)(=O)c2ccc(C(=O)Nc3sc4c(c3C#N)CCC4)cc2)CC1

(listing goes on)
HPGD inh	compound
-4.8%	CC1Sc2ccccc2N(CC(=O)N(C(C)C)C(C)C)C1=O (stereo unspecified)
-15.1%	Cc1cc(Cl)c(S(=O)(=O)N2CCSCC2)cc1OCC(=O)NC1CCCCC1
?	COc1ccc2nc(C)cc(C(=O)O)c2c1
2.1%	CC(C)n1c(N2CCN(C(=O)Nc3ccccc3)CC2)nc2ccccc21
-7.8%	O=C(Cc1ccc([N+](=O)[O-])cc1)Nc1nnc(C2CC2)s1
-14.9%	COc1ccc(/C=N/NC(=O)CN(CCc2ccccc2)S(=O)(=O)c2ccc(NC(C)=O)cc2)cc1OC
-2.0%	Nc1nc2ccccc2n1CCN1CCCC1
-5.1%	C=CCn1c(SCc2nc3scc(-c4ccccc4)c3c(=O)[nH]2)nnc1-c1ccccc1F
-14.6%	CC(C)(Oc1ccc(C2CC2(Cl)Cl)cc1)C(=O)O (stereo unspecified)
-3.0%	O=C(O)Cn1ccnc1[N+](=O)[O-]
-3.4%	O=C(O)C1C2C=CC(CC2)C1C(=O)O (stereo unspecified)
-5.1%	COc1ccccc1-c1nnn(CC#N)n1
-21.1%	CCNC(=S)Nc1cc(OCC)c(NC(=O)c2ccco2)cc1OCC
-5.4%	CCOC(=O)N1CCC(Nc2c(NCCCN(CC)CC)c(=O)c2=O)CC1
-3.7%	COc1ccccc1NC(=O)CSc1nnnn1-c1ccc2c(c1)OCO2
?	CCC(=O)Nc1c(-c2cccs2)c(=O)c2ccccc2n1C
?	CCNc1ncc2nc(-c3cccc(C#N)c3)c(=O)n(C)c2n1
-6.6%	CCc1ccc(OCCCC(=O)Nc2ccc(N3CCCCC3)cc2)cc1
-13.2%	CN1C(=O)C(CC(=O)Nc2ccc3c(c2)Cc2ccccc2-3)N(C)C1=O (stereo unspecified)
-3.6%	CCN(C(=O)Cn1c(=O)n2nc(CCn3nc(C)cc3C)nc2c2ccccc21)c1cccc(C)c1
-2.6%	COc1ccc(Nc2ccc(S(=O)(=O)N3CCCCC3)cc2[N+](=O)[O-])cc1OC
-4.5%	O=C(COC(=O)c1ccco1)Nc1ccccc1
-2.2%	O=C(CCNC(=O)c1ccc(Cl)cc1)Nc1ccc(F)cc1F
20µM*	O=C(NCc1ccccn1)c1ccc(Cl)s1
0.6%	CC(=O)c1noc(C)c1C(=O)Nc1nccs1

7 entries drawn at random from the list so far, as already listed:
HPGD inh	compound
-6.6%	CCc1ccc(OCCCC(=O)Nc2ccc(N3CCCCC3)cc2)cc1
0.6%	CC(=O)c1noc(C)c1C(=O)Nc1nccs1
-21.1%	CCNC(=S)Nc1cc(OCC)c(NC(=O)c2ccco2)cc1OCC
-4.8%	CC1Sc2ccccc2N(CC(=O)N(C(C)C)C(C)C)C1=O (stereo unspecified)
-5.1%	C=CCn1c(SCc2nc3scc(-c4ccccc4)c3c(=O)[nH]2)nnc1-c1ccccc1F
2.1%	CC(C)n1c(N2CCN(C(=O)Nc3ccccc3)CC2)nc2ccccc21
-3.7%	COc1ccccc1NC(=O)CSc1nnnn1-c1ccc2c(c1)OCO2

Remaining list, next part.
HPGD inh	compound
?	COc1ccccc1Nc1nc2c(s1)CCC2
-18.1%	Cc1cc(=O)n(CCCO)c(O)c1C#N
?	CCc1cc2c3c(c(=O)oc2cc1O)CCCC3
-11.4%	O=C(Nc1ccc2c(c1)CCC2)c1cc2ccccc2o1
-5.7%	COC1C(O)CC(=O)OC(C)C/C=C/C=C/[C@@H](OC2CCC(N(C)C)C(C)O2)C(C)C[C@@H](CC=O)[C@@H]1O[C@H]1OC(C)[C@H](O[C@@H]2C[C@@](C)(O)C(O)C(C)O2)C(N(C)C)C1O (stereo partly specified)
14.1µM*	Cc1ccc(NC(=O)c2c(C)nn(-c3ccccc3)c2Cl)cc1
-22.5%	CC(C)Oc1c(Br)cc(Br)cc1/C=N/NC(N)=S
-20.0%	CCOc1ccc(OCc2ccc(C(=O)Nc3cccc(C)n3)o2)cc1
-10.2%	CC(=O)c1cccc(NC(=O)NC2CC3CCCC(C2)N3CC(C)C)c1 (stereo unspecified)
?	CSc1nc(-c2ccccc2)nn1C(=O)c1ccc(Cl)cc1
-2.7%	Cn1ccnc1SCc1nc2c(cnn2-c2ccccc2)c(=O)[nH]1
-13.4%	Cc1ccc(/C=N/NC(=O)C2=NNC(c3ccccc3)(c3ccccc3)C2)c(O)c1
-9.6%	O=C1CCCC(O)=C1C1NCCc2ccccc21 (stereo unspecified)
-8.0%	COc1ccc(C2C(C#N)=C(N)OC3=C2C(=O)CCC3)c(OC)c1OC (stereo unspecified)
-17.8%	O=C(c1ccccc1Sc1cccc2ccccc12)N1CCOCC1
0.794µM*	CCCCOc1ccc(C(=O)N2CCCCCC2)cc1
0.6%	O=C(Nc1ccccc1-c1ccccc1)NC1CCN(CC(=O)N2CCOCC2)CC1
-8.7%	CSc1ccc(N2C(=O)NC3(CCCCC3)C2=O)cc1
-3.5%	Cc1cc(C(=O)CSc2nnc(-c3ccc(OC(F)F)cc3)o2)c(C)n1Cc1cccs1
-0.9%	S=C(Nc1cccc2ccccc12)NN1CCOCC1
7.08µM*	O=C(CC1COc2ccccc2O1)NCCc1ccccc1 (stereo unspecified)
-2.8%	COc1cccc(C(O)CC(N)=O)c1 (stereo unspecified)
-7.8%	Cc1c(C(=O)Nc2ccc(Cc3ccncc3)cc2)cccc1[N+](=O)[O-]
?	CCCCOC(=O)C1CN(c2ccccc2)N=C1C(=O)OCC (stereo unspecified)
-18.8%	COc1ccc(C(=O)NNC(=O)Cc2ccc(-c3ccccc3)cc2)cc1OC
-3.6%	O=C(Nc1c(F)cccc1F)c1ccc(-n2cncn2)nc1
-10.7%	CN(C)c1ccc(/C=C2\CCC/C(=C\c3ccccc3)C2=O)cc1
?	Nc1c(C(=O)Nc2nccs2)sc2nc(-c3cccs3)cc(C(F)(F)F)c12
-16.4%	Cc1ccc(NC(NC(=O)c2cccs2)C(Cl)(Cl)Cl)cc1 (stereo unspecified)
-11.0%	CCC(C)(C)NC(=O)C(c1ccccc1)N(C(=O)c1csnn1)C1CC1 (stereo unspecified)
14.1µM*	CCOC(=O)/C(=N\Nc1ccccc1)S(=O)(=O)c1ccccc1
-21.2%	CCCCSc1nnc(-c2ccc(NC(=O)CC)cc2)n1C
-11.0%	Cc1ccc(CC(=O)Nc2nc3c(s2)CCCC3)cc1
-9.8%	CCn1cc(C(=O)NCC2CCCO2)c(=O)c2cc(S(=O)(=O)N3CCCCC3)ccc21 (stereo unspecified)
-3.7%	O=C(OCC(=O)C12CC3CC(CC(C3)C1)C2)c1cccnc1Cl
12.6µM*	O=C(O)Cc1ccc(C(=O)c2cccs2)s1
?	O=C(Oc1cc2oc(=O)cc(-c3ccccc3)c2cc1Cl)C1CCCCC1
-11.5%	Cc1nnc(N2CCOCC2)c2nn(-c3cccc(Cl)c3)c(C)c12
?	CCOC(=O)N1CCN(c2c(F)cc3[nH]c(=S)[nH]c3c2Br)CC1
3.16µM*	COC(=O)c1c(-c2ccc(C(C)(C)C)cc2)csc1NC(=O)C1C2CCC(O2)C1C(=O)O (stereo unspecified)
-13.5%	COc1ccc(C(=O)COC(=O)Cn2nnc3ccccc32)cc1Br
-12.8%	COC(=O)Nc1nnc(CC(=O)Nc2ccccc2C)s1
-18.4%	O=S(=O)(O)c1ccc(O)c2ncccc12.O=S(=O)(O)c1ccc(O)c2ncccc12.[Zn]
-6.3%	NNC(=O)c1cc(Br)cs1
-9.4%	O=C(NCc1ccco1)C1CCCN(S(=O)(=O)c2cccc3nsnc23)C1 (stereo unspecified)
-16.4%	COc1ccc(-c2nnn(CC(=O)NC3CCCc4ccccc43)n2)cc1OC (stereo unspecified)
-25.2%	CCOC(=O)c1c(NC(=O)COC(=O)Cn2cnc3ccccc32)sc2c1CCC(C)C2 (stereo unspecified)
3.55µM*	O=C(NC1CCCC1)c1ccc(Br)s1
-3.8%	CCC(C)(C)n1nnnc1C(c1cccnc1)N1CCCc2ccccc21 (stereo unspecified)
-13.4%	CCN1C(=O)c2ccccc2S(=O)c2ccc(C(=O)NC3CC3)cc21 (stereo unspecified)

Continued.
HPGD inh	compound
14.1µM*	O=C(NC1CC1)c1ccc2c(c1)ncn2C1CCCC1
-12.8%	COc1cccc(C(=O)Nc2nc3c(c(=O)[nH]2)CCCC3)c1
-13.5%	CC1CN(Cc2nc3c(c(=O)n(C)c(=O)n3C)n2CC(=O)c2ccccc2)CC(C)O1 (stereo unspecified)
-1.9%	COC(=O)Cn1c(=O)sc2ccccc21
-16.5%	CCCc1ccc(Oc2cn[nH]c2-c2ccc(O)cc2O)cc1
-9.7%	CN1C(=O)/C(=C\c2ccccc2)Sc2ccc(C(=O)N3CCN(c4ccccn4)CC3)cc21
-4.7%	O=C(Nn1c(-c2ccc(Br)cc2)nc2ccccc2c1=O)c1ccc([N+](=O)[O-])cc1
?	COc1ccc2[nH]c(=O)c(CN(CCO)C(=O)c3cccs3)cc2c1
4.1%	CC(C)C1NC(=O)[C@H](CCCCN)NC(=O)[C@@H](Cc2c[nH]c3ccccc23)NC(=O)[C@H](Cc2ccc(O)cc2)NC(=O)[C@H](C)N(C)C(=O)[C@H](Cc2ccccc2)NC1=O (stereo partly specified)
-4.5%	Cc1onc(-c2ccccc2Cl)c1C(=O)Nc1ccc(CN2CCCC2)cc1
-9.1%	CC(=O)NC1C(=O)N=C(SCC(=O)NCc2ccccc2)NC1=O (stereo unspecified)
-1.2%	COc1cc(NC2=CC(=O)CC(C)(C)C2)cc(OC)c1OC
-21.9%	Cc1ccc(C2C(C#N)=C(N)Oc3cc4c(cc32)OCO4)cc1 (stereo unspecified)
-16.0%	COc1ccc(-c2nc3ccccc3c(=O)n2CCCn2ccnc2)cc1
-23.0%	Cc1cccc(C)c1N1C(=O)C2ON(c3ccccc3)C(c3ccncc3)C2C1=O (stereo unspecified)
-11.2%	COc1ccc(S(=O)(=O)N2CCC(C(=O)N3CCOCC3)CC2)cc1OC
-19.7%	CCCC(=O)OCC(=O)Nc1ccccc1Sc1ccccc1
-9.6%	Cc1c(Br)cc(-c2nnco2)cc1Br
0.7%	C[C@@H]1CC2(OC[C@]3(C)O[C@H]23)O[C@H]2C[C@@]3(C)[C@@H]4CC[C@H]5C(C)(C)C(O[C@@H]6OC[C@@H](O)[C@H](O)[C@H]6O)CC[C@@]56C[C@@]46CC[C@]3(C)[C@@H]12 (stereo partly specified)
-19.4%	COc1ccccc1C(=O)N/N=C/c1cnc2ccccc2n1
25.1µM*	CCN(CC)S(=O)(=O)c1cccc(C(=O)N/N=C/c2ccc(O)c(O)c2O)c1
-11.3%	O=C(Nc1ccc2c(c1)OCCO2)c1ccc(CN2CCOCC2)cc1
-12.6%	CCOC(=O)c1c(C)oc2ccc(O)c(CN3CCCCC3)c12

Screens as filed in PubChem.
